# Beta2AR agonist = beta2AR agonists driving receptor internalization, primary screen, cell-based, FAP fluorogen, flow cytometry; Am2.2-beta2AR cells; reference of the scale not given here; Beta-2 adrenergic receptor (Homo sapiens), P07550; 340,000 tested, 0.43% active; response, % (test concentration not listed);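 active = response above a set limit, near 3 SD of response in nonfluorescent compounds, cut at about 42% in these data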;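 also: stock transfer was 100 nL into about 11 µL; a reference agonist was the positive control; negative values mostly stem from fluorescent compounds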
# Target sequence (P07550 whole entry, looked up): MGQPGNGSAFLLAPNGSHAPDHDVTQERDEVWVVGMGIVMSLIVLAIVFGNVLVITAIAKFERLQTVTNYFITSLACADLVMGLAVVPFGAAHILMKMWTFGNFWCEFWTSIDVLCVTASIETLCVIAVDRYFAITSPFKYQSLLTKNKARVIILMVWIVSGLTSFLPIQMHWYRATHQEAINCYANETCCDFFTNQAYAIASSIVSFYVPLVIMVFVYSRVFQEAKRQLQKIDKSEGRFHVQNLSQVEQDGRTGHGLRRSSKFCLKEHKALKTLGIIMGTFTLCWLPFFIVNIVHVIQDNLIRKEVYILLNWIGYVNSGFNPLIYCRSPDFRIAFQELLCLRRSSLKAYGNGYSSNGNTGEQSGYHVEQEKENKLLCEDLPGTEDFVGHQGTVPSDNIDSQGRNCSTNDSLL
# Ecoli rRNA inh = reduced GFP signal of wild-type E. coli, primary screen, bacterial rRNA inhibitor project, GFP/RFP fluorescence, OD600, single point | E. coli WT GFP vs humanized-ribosome RFP mutants, 24 h; hits give low values; DMSO median 0, no signal -100 | GFP signal change (wild-type ribosome), % (test concentration not listed) | 350,000 tested, 1.6% active;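 active = significant combined selectivity score with lowered wild-type GFP, culture density cut under 30%, mutant RFP and density less affected; inactive = any of these conditions unmet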; also: one replicate is shown; some compounds called inactive have numbers as strong as hits
# Bfl-1 A1 inh = caspase 3/7 activation in MEF A1-2A-BIM cells, primary screen, A1 inhibitor project, cell-based, luminescence, HTS | Caspase-Glo 3/7 luminescence, 3 h; percent of clofoctol response, vehicle zero | caspase activation, % (test concentration not listed) | 330,000 tested, 0.066% active | AID 2462, 2010;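 active = over half of replicate activation scores above 10%, or exactly half above 10 with the replicate mean above 10; inconclusive = replicate mean below 10 yet half the replicates above 10; inactive = over half of replicates below 10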;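 also: wells of about 30 µL received 50 nL stock; many hits fall short of the cut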
# T cruzi repl = inhibitors of intracellular T. cruzi growth, primary screen, luminescence, NIH3T3 host cells; T. cruzi beta-gal in NIH3T3, 90 h; inhibition, % (no concentration beside the values); 300,000 tested, 1.4% active; AID 1885, 2009;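 active = mean inhibition across valid replicates above about 55%, limit read from the data; inconclusive = mean below that limit but half or more replicates reach it; inactive = mean below it, under half of replicates reach it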;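 also: signal also drops with host cell toxicity which is not excluded here; 0% = plate median of DMSO wells and 100% = zero luminescence signal; higher percent means less beta-gal luminescence so fewer parasites; stock transfer was 50 nL into about 50 µL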
# Beta cell apopt = inhibitors of cytokine-induced beta cell apoptosis, primary screen, luminescence | INS-1E cytokine-induced death, ATP luminescence, 48 h; percent of positive-control rescue, neutral wells zero | protection from apoptosis, % (no concentration beside the values) | 300,000 tested, 0.8% active;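 active = all replicates at 75% or more, or half of them and the mean; inconclusive = half reach 75% but not the mean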;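 also: 0% = cytokine-treated negative control wells and 100% = positive control rescue; higher means more ATP so stronger rescue from cytokine killing; wells of about 40 µL received 100 nL stock; the first replicate is given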
# LANA-H2B inh = blockers of LANA interaction with H2A/H2B – biochemical, FP readout, HTS, primary screen | inhibition, % (test concentration not listed) | AID 2629, 2010 | 320,000 tested, 0.6% active | cell-free LANA-H2A/H2B peptide, fluorescence polarization | Protein LANA1 (Human herpesvirus 8 type P (isolate GK18)), Q9QR71; in the data active = inhibition mostly above about 10%, no sharp cut-off; inactive = mostly below about 6.7%;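 also: stock transfer was 7.5 nL into about 10 µL; 0% = median of vehicle wells and 100% = median of positive control wells; one replicate is shown; the record names a cut of 25% in any replicate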
# Calb FLC = C. albicans growth inhibition with fluconazole, primary screen, CaCi-2 strain, Alamar Blue fluorescence; growth inhibition, % (test concentration not listed); C. albicans CaCi-2 (fluconazole-resistant clinical isolate) + fluconazole, 48 h; 300,000 tested, 0.57% active; AID 1979, 2009;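 active = most replicates above 75%; inconclusive = exactly half above 75%; inactive = most below 75%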;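 also: all wells also contain fluconazole at 8 µg/ml as a sub-toxic cotreatment; 0% = median of DMSO wells and 100% = median of geldanamycin control wells; wells of about 8 µL received 7.5 nL stock; the first replicate is given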
# ALR inh = inhibitors of human ALR sulfhydryl oxidase, primary screen, biochemical, H2O2 detection, HRP-luminol luminescence, single point; FAD-linked sulfhydryl oxidase ALR (Homo sapiens), P55789; purified ALR, DTT oxidation; inhibition, % (test concentration not listed); 290,000 tested, 3.8% active; AID 485317, 2010;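 active = mean and each replicate at 75% or more; inconclusive = only one of the two met; inactive = neither met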;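 also: stock transfer was 7.5 nL into about 7.5 µL; 0% = neutral wells and 100% = wells with inactivated enzyme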
# Target sequence (P55789 whole entry, looked up): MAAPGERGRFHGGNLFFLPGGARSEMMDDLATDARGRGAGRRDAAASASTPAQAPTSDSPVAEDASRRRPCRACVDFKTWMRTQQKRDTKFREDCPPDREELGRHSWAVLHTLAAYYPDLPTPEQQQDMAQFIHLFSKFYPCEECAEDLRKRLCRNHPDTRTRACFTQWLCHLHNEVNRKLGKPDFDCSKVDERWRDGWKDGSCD
# Ecoli rRNA inh OD600 = recorded beside Ecoli rRNA inh, whose call it bears; OD600 change, %; measured here: OD600 growth;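 optical density of the mix in the first replicate; 0 = DMSO median and -100 = no signal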
# Ecoli rRNA inh RFP = also measured in Ecoli rRNA inh; calls as there; RFP signal change, %; measured here: RFP humanized mutant strains;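 first replicate; 0 = DMSO median and -100 = no signal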
# The depositor's hits bear a star; i = inactive; ? = inconclusive; . = not tested or not shown.
# Start of the listing, in advance (four entries):
SMILES,Beta2AR agonist,Ecoli rRNA inh,Ecoli rRNA inh OD600,Ecoli rRNA inh RFP,Bfl-1 A1 inh,T cruzi repl,Beta cell apopt,LANA-H2B inh,Calb FLC,ALR inh
COc1ccc(OCC(=O)Nc2cc(OC)cc(OC)c2)cc1,2,.,.,.,-1.5,-8,0,2.8,10,-25
NC(=O)c1nnn(-c2cccc(C(F)(F)F)c2)c1-c1ccccc1,6,-8,-8,0.2,0.5,-26,.,1.7,-4,2
CCOc1cc(NC(=S)NCCCN2CCOCC2)c(OCC)cc1NC(=O)C(C)C,-14,.,.,.,0.6,-10,-4,2.5,-30,-97
Cc1cccc(C)c1OCCNC(=O)C(=O)NCc1ccco1,29,16,14,1.1,0.2,-21,6,4.4,3,-19

# Main list (from the top)
SMILES,Beta2AR agonist,Ecoli rRNA inh,Ecoli rRNA inh OD600,Ecoli rRNA inh RFP,Bfl-1 A1 inh,T cruzi repl,Beta cell apopt,LANA-H2B inh,Calb FLC,ALR inh
COc1ccc(OCC(=O)Nc2cc(OC)cc(OC)c2)cc1,2,.,.,.,-1.5,-8,0,2.8,10,-25
NC(=O)c1nnn(-c2cccc(C(F)(F)F)c2)c1-c1ccccc1,6,-8,-8,0.2,0.5,-26,.,1.7,-4,2
CCOc1cc(NC(=S)NCCCN2CCOCC2)c(OCC)cc1NC(=O)C(C)C,-14,.,.,.,0.6,-10,-4,2.5,-30,-97
Cc1cccc(C)c1OCCNC(=O)C(=O)NCc1ccco1,29,16,14,1.1,0.2,-21,6,4.4,3,-19
Cc1ccc(CNC(=O)CCC2CCCN(Cc3cccc4ncccc34)C2)o1 (centres undefined),-5,13,15,3.5,-0.4,66*,-9,0.7,2,7
COc1ccc(S(=O)(=O)Nc2cc(C(=O)NCCCOC(C)C)ccc2N2CCOCC2)cc1,-3,-5,-8,-11,0.3,-4,6,-1.4,3,18
COc1cccc(NC(=O)CSc2nc3ccccc3nc2N2CCCC2)c1,-16,0,-8,-4.6,-0.2,-4,-2,-1.7,-1,?
Cc1cccc(NC(=O)Nc2nnc(N3CCCCC3C)s2)c1C (centres undefined),1,9,14,2.1,0.1,18,0,-3.1,4,5
O=C(C[n+]1ccccc1)Nc1c(Cl)cc(Cl)cc1Cl,-5,16,13,3.6,-0.3,-11,.,-0.2,19,-6
CCN1C(=O)c2ccccc2S(=O)c2ccc(C(=O)NCCCN3CCCC3=O)cc21 (centres undefined),8,5,6,-0.1,-0.8,-8,1,-0.7,1,9
CSc1nc(C)nc(N/C=C(\C#N)S(=O)(=O)c2ccccc2Cl)n1,9,7,7,4.8,0.4,3,-14,-0.7,-8,1
Cc1ccc(-n2nnnc2SCC(=O)Nc2sccc2C#N)cc1,-1,.,.,.,0.5,-2,-3,-1.5,4,-1
CCOc1cc(CN2CCN(CCc3ccccc3)C(CCO)C2)ccc1OC (centres undefined),0,6,-2,-1.4,0.5,12,-3,-4.8,-15,-4
Cc1cccc(C2=N/C(=C\c3cccnc3)C(=O)O2)c1,27,.,.,.,1.0,-3,3,-0.4,6,0
CCOc1ccc(S(=O)(=O)NCCC(=O)N2CC(C)CC(C)C2)cc1 (centres undefined),-13,-8,-8,3.0,1.5,3,-8,6.6,-12,10
CCOC(=O)c1ccc(COc2nc3ccccc3nc2-c2ccccc2NC(C)=O)o1,1,.,.,.,0.1,-4,-3,0.3,16,5
O=C(NCc1ccccn1)c1cccc(NS(=O)(=O)c2cccc(F)c2)c1,-1,2,-10,-3.4,0.2,-16,1,8.7,17,-7
O=C1OC(Nc2ccc(F)c([N+](=O)[O-])c2)c2ccccc21 (centres undefined),9,7,-1,-2.1,-0.1,-5,0,4.6,-3,.
O=C(CSc1n[nH]c(-c2ccncc2)n1)Nc1ccccc1C(F)(F)F,14,.,.,.,-0.4,-10,.,3.3,6,-2
COCCNC(=O)C(c1ccccc1C)N(CCOC)C(=O)Cn1nnc2ccccc21 (centres undefined),-3,.,.,.,1.4,5,-7,i,0,-25
COc1cccc(C(=O)Nc2ccccc2N2CCN(C(=O)c3ccccc3)CC2)c1,3,-17,-38,-1.7,-0.5,.,3,2.5,.,-1
Cc1occc1-c1nnc(SCC(=O)Nc2nc(-c3ccccc3)cs2)o1,-4,-24*,-13*,8.5*,0.1,10,-2,5.9,6,-8
Cc1cc(C(=O)CSc2ncccn2)c(C)n1Cc1ccco1,-1,11,3,2.8,0.3,10,-4,-5.6,-8,9
O=C(Cn1nnc2c(cnn2-c2ccccc2)c1=O)NCc1cccs1,0,.,.,.,0.4,-6,0,12,-3,1
O=C(/C=C\Nc1ccc(S(=O)(=O)Nc2ncccn2)cc1)c1cccc2ccccc12,15,-20*,-11*,6.6*,0.3,6,-6,-1.0,-1,-24
C=CCn1c(CNC(=O)c2cccs2)nnc1SCC(=O)c1ccc(Br)cc1,-1,.,.,.,0.1,33,-1,0.5,0,86*
CCCn1c(CCNC(=O)c2cccs2)nc2ccccc21,-12,-9,-12,1.6,0.4,-4,9,-0.4,-1,-6
Cc1ccc(NC(=O)c2cc(S(=O)(=O)NCCC3=CCCCC3)ccc2F)cc1F,6,.,.,.,-0.3,12,107*,4.0,-4,-3
CCC(C)(C)n1nnnc1C(C(C)C)N(Cc1ccco1)Cc1cc2cc3c(cc2[nH]c1=O)OCO3 (centres undefined),9,.,.,.,-0.2,2,-9,5.2,2,-6
CCCc1[nH]nc2c1C(c1ccc(O)c(OC)c1)C(C#N)=C(N)O2 (centres undefined),0,.,.,.,-0.4,3,-3,9.3,2,99*
COc1cc(C(=O)Nn2c(C)nc3ccccc3c2=O)cc(OC)c1OC,1,15,7,7.6,0.7,8,-2,-1.1,-7,-8
O=C(CS(=O)CC(=O)N(c1cccc(F)c1)C(C(=O)NC1CCCCC1)c1ccco1)Nc1ccc(F)cc1 (centres undefined),0,.,.,.,-1.7,-4,-5,5.8,-9,.
Cc1cc(C)c(C)c(S(=O)(=O)NCc2ccc(C(=O)N3CCOCC3)cc2)c1C,0,5,1,-0.1,0.2,-6,-2,5.8,4,0
CCOc1ccc2nc(N(CCN(CC)CC)C(=O)c3ccc([N+](=O)[O-])cc3)sc2c1,2,0,0,0.9,2.2,55*,-11,-3.7,0,.
c1ccc2c(c1)nc(NC1CCCCC1)c1nncn12,-12,-9,-14,3.6,0.0,-5,8,4.2,-1,21
COCC(COCCCNC(=O)Nc1ccc(Br)cc1)OC (centres undefined),6,.,.,.,-0.4,-11,-6,3.1,-3,0

# 3 of the entries above in order of their number in Bfl-1 A1 inh, smallest number first:
SMILES | Beta2AR agonist | Ecoli rRNA inh | Ecoli rRNA inh OD600 | Ecoli rRNA inh RFP | Bfl-1 A1 inh | LANA-H2B inh | ALR inh
O=C(CS(=O)CC(=O)N(c1cccc(F)c1)C(C(=O)NC1CCCCC1)c1ccco1)Nc1ccc(F)cc1 (centres undefined) | 0 | . | . | . | -1.7 | 5.8 | .
Cc1ccc(NC(=O)c2cc(S(=O)(=O)NCCC3=CCCCC3)ccc2F)cc1F | 6 | . | . | . | -0.3 | 4.0 | -3
CCC(C)(C)n1nnnc1C(C(C)C)N(Cc1ccco1)Cc1cc2cc3c(cc2[nH]c1=O)OCO3 (centres undefined) | 9 | . | . | . | -0.2 | 5.2 | -6

# Continuation:
SMILES,Beta2AR agonist,Ecoli rRNA inh,Ecoli rRNA inh OD600,Ecoli rRNA inh RFP,Bfl-1 A1 inh,T cruzi repl,Beta cell apopt,LANA-H2B inh,Calb FLC,ALR inh
Cc1cccc(C(=O)NNC(=O)c2ccc(-c3ccccc3)cc2)c1,12,.,.,.,-5.1,5,9,-6.0,-6,-5
COC(=O)CCC/C=C1/SCC(NC(=O)c2ccccc2)C1NC(C)=O (centres undefined),4,11,9,-3.0,0.0,-5,-4,1.2,36,6
Cc1ccc(C(=O)Nc2ccc(S(=O)(=O)N3CCOCC3)cc2)cc1C,13,-10,-11,17,-0.5,-10,.,-11,0,2
O=C(CNc1ccc2c(c1)OCO2)N/N=C\c1ccccc1Cl,0,-3,-6,-5.2,0.5,0,-6,-1.3,3,-4
Cc1ccc(S(=O)(=O)N2CCOCC2)cc1NC(=O)C(c1ccc(Cl)cc1)C(C)C (centres undefined),4,-14,-25,-3.1,0.9,10,7,-3.8,11,-6
COc1cc(-c2nnc3sc(-c4ccco4)nn23)cc(OC)c1OC,-8,5,8,-1.6,-0.3,4,11,5.2,-2,98*
Cc1ccc(N=Nc2c(N)n[nH]c2N)cc1,-3,6,7,-2.2,-3.0,5,-3,-7.3,-9,46
O=C(Nn1c(-c2ccc(F)cc2)nc2ccccc2c1=O)C1CCCCC1,1,6,8,-2.1,-0.1,8,-1,2.7,-53,.
COc1ccc(N2C(=O)C3CCCCC3C2=O)cc1NC(=O)c1ccccc1 (centres undefined),-2,9,8,0.2,-0.2,-10,1,-0.7,-12,-4
Cc1cccc(NNC(N)=S)c1,-3,5,14,-0.2,-0.5,-4,-13,-7.4,-40,.
Nc1nc(SCC(=O)Nc2ccccc2)nc2nc3c(cc12)CCCC3,-22,.,.,.,-0.3,3,4,-5.7,3,20
CC(Cc1ccccc1)NC(=S)CN1CCCC1=S (centres undefined),-3,-21*,-11*,-2.8*,0.4,-1,-4,2.2,-7,-10
C=CCC1CCCCC12NC(=O)NC2=O (centres undefined),-2,.,.,.,0.8,-5,-5,-0.3,-4,.
CN(C)S(=O)(=O)N(CC(=O)NCc1ccccc1)c1ccccc1,6,-1,-3,1.5,0.5,-9,-4,14,10,-14
O=C(CSc1nc2c(sc3ccccc32)c(=O)n1CCCN1CCCC1)NCc1ccco1,11,6,-2,5.1,-0.1,15,-9,-5.4,-3,98*
CC(C)N1CN=C(Nc2nc3ccccc3o2)NC1,-2,7,1,-7.0,0.0,-6,-8,0.9,3,-3
CC(C)P(=O)(Cc1cccc(C#N)c1)C(C)C,8,.,.,.,-0.2,-17,1,-0.5,-3,-6
Cc1ccc(C(=O)OCC(=O)NCc2ccc3c(c2)OCO3)o1,5,7,9,3.4,-1.3,.,-4,5.5,.,2
COc1cccc(C=O)c1OCCCOc1cccc2cccnc12,0,-10,-5,-2.4,0.2,-4,-3,-1.3,-2,97*
NC(=O)COc1ccc(C23CC4CC(CC(C4)C2)C3)cc1,-7,4,0,0.7,0.2,0,1,-3.8,2,-2

# From PubChem

# This is a subset (hit frequency here may not be typical).
